Source: PubChem
Rango-impB inh = qHTS Assay for Inhibitors of Rango (Ran-regulated importin-beta cargo) - Importin beta complex formation | Importin subunit beta-1 (Homo sapiens), Q14974 | Rango CFP/YFP FRET sensor + importin beta, 45 min | Potency, µM (doses to about 92.2 µM), for inactives: at the top dose inhibition of complex formation | 340,000 tested, 0.031% active; active = rising FRET ratio curve, often small or poorly fitted; inconclusive = mostly compound fluorescence or quenching in the first reads; inactive = flat curves in all reads;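 note: potency is the fitted concentration of half-maximal effect; 0% = DMSO wells and 100% = buffer wells lacking importin beta; nearly all actives have a fitted effect of over 15% in size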
Target sequence (Q14974 whole entry, looked up): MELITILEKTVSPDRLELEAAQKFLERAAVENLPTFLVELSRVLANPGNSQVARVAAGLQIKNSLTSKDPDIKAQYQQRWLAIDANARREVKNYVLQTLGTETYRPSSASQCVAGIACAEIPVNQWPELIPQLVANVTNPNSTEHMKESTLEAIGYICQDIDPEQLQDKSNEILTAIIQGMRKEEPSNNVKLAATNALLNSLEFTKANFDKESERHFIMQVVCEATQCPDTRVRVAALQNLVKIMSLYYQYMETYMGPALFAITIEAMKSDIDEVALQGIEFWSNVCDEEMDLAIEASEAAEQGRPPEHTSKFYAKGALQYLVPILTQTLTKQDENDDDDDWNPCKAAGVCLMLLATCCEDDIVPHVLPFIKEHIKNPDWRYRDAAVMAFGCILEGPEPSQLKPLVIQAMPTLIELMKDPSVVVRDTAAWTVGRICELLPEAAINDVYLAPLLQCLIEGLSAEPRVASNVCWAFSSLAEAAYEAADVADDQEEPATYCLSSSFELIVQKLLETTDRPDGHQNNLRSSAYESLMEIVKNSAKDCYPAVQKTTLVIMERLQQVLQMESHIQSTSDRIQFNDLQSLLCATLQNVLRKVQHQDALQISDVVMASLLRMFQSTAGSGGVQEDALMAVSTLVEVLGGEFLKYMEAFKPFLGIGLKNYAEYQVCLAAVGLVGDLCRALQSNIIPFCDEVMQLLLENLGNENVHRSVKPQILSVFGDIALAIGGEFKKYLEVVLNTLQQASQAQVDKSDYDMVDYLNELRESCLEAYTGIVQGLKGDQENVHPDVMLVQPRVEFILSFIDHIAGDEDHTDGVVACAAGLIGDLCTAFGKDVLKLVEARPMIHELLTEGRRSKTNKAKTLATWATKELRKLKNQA
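Inhibition scored from the CFP 486 nm/YFP 530 nm FRET ratio 45 min after adding 0.125 microM importin beta to 50 nM Rango biosensor preincubated 5 min with compound (room temperature, PBS with DTT, Tween-20, BSA). No-importin wells as positive control.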
miR-21 FLuc = qHTS Assay for Modulators of miRNAs and/orActivators of miR-21 | 340,000 tested, under 10 active | Potency, µM (series often up to 38.3 µM), for the others: at the highest dose reporter change, positive = more light | HeLa miR-21 FLuc reporter, luciferase, 48 h; active = well fitted rising curve with a large enough effect; inconclusive = small, poorly fitted or top-dose-only effect; inactive = no such curve, though single readings can be large or run the other way;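 note: % of control where 0% means no effect; miR-21 action dims this reporter so a rising signal means less miR-21 action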
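Luminescence from a firefly luciferase reporter carrying a miR-21 binding site downstream, stably expressed under a CMV promoter in HeLa cells that make miR-21 endogenously, reports miRNA modulation after 48 h compound exposure up to approximately 40uM final.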
GLA inh pH 4.5 = qHTS Assay for Inhibitors of Human alpha-Galactosidase at pH 4.5; Alpha-galactosidase A (Homo sapiens), P06280; purified enzyme, 4-MU-alpha-Gal fluorescence, pH 4.5; activity change, negative = inhibition, % at 105 µM; 230,000 tested, under 10 active; AID 1467, 2008; inconclusive = small, poorly fitted or top-dose-only inhibition, or a rising curve; inactive = flat fitted curve, though single readings scatter; no compound was filed as active;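 note: 0% = full activity with enzyme and -100% = basal without enzyme; dose as in the result columns while the protocol names 77 µM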
Rango dissoc inh = qHTS Assay for Inhibitors of RanGTP induced Rango (Ran-regulated importin-beta cargo) - Importin beta complex dissociation | Snurportin-1 (Homo sapiens) + GTP-binding nuclear protein Ran (Homo sapiens) + Importin … | Biochemical FRET Rango-importin beta, RanGTP-induced dissociation | Potency, µM (titrated, usually from 46.1 µM), without a hit: at the top dose activity change, negative = inhibition | 340,000 tested, 0.071% active | AID 540253, 2011; active means falling FRET ratio curve, often poorly fitted, with flat reads before Ran was added; inconclusive means other falling curves, or compound fluorescence or quenching; inactive means flat or rising ratio curve;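 note: potency is the fitted concentration of half-maximal effect; % of control where 0% means no effect; nearly all actives have a fitted effect of over 45% in size; -100% = wells without RanGTP and RCC1; the record marks most hits as doubtful in a second field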
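Compounds preincubate 5 min with complex of recombinant Rango and importin beta in PBS with 1 mM DTT. Ran (0.6 uM) loaded with 2 mM GTP plus 0.2 uM RCC1 starts dissociation; FRET is recorded 45 min later.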
Starred values were filed as active, the others as inactive; ? = inconclusive; / = no result given; & = joins results of further samples. A portion of the library; rates above refer to the full screens.

SMILES | Rango-impB inh | miR-21 FLuc | GLA inh pH 4.5 | Rango dissoc inh
CC(Oc1ccccc1)C(=O)N=C1SC2CS(=O)(=O)CC2N1Cc1ccccc1 (stereo not drawn) | 4.3% | -5% | / | -2%
O=C(NCC1COCCO1)c1ccc2nc(Cc3cccc(Cl)c3)oc2c1 (stereo not drawn) | -3.6% | -36% | / | -5%
COc1ccccc1/C=C/C(=O)OCC(=O)Nc1ccc2c(c1)OCCO2 | 2.2% | / | / | -5%
COc1cccc(-c2ccc(NC(=O)C3CCCN(Cc4cnc(N(C)C)s4)C3)cc2)c1 (stereo not drawn) | 0.1% | 10% | / | -14%
COC(=O)c1sccc1S(=O)(=O)Nc1ccc(N2CCCCC2)cc1 | 0.3% | 4% | 6 | -1%
Clc1ccc(-c2csc(N3CCN(c4ccccc4)CC3)n2)cc1 | 1.0% | -7% | 3 | -7%
CC1CC(C)(C)NC(=S)N1CCCC(=O)Nc1ccc(Cl)cc1 (stereo not drawn) | -0.1% | -3% | -8 | 15%
COc1ccc(-n2ncc(C(C)NS(=O)(=O)c3ccc(C)s3)c2C)cc1 (stereo not drawn) | ? | 13% | / | -8%
Cc1cccc(-n2cc(C(=O)O)c(=O)cc2C)c1 | 1.0% | -4% | 5 | -2%
O=C(CCC(=O)OCC(=O)c1ccc([N+](=O)[O-])cc1)NC1CCCCC1 | -0.8% | -4% | -2 | 1%
Cn1c(CCC(=O)OCC(=O)NCC(F)(F)F)nc(=O)c2ccccc21 | 1.4% | -6% | 3 | -9%
CC(NS(=O)(=O)c1ccc(OCC(=O)NCc2ccccn2)cc1)c1ccccc1 (stereo not drawn) | -1.2% | 3% | / | 3%
COc1cccc(NC(=O)Nc2ccc(C(C)(C)C)cc2)c1 | 0.4% | 9% | -3 | 8%
N#C/C(=C/c1ccc(F)cc1)c1nc(CCN2C(=O)c3ccccc3C2=O)cs1 | -4.6% | -5% | -4 | 8%
Cc1ccc(-c2nnc(C)c(N3CC(C)OC(C)C3)n2)cc1 (stereo not drawn) | 3.2% | -24% | -26 | 21%
CN(C)c1ccc(C(C(=O)NC2CCCC2)N(Cc2cccnc2)C(=O)c2snc(C(N)=O)c2N)cc1 (stereo not drawn) | 0.3% | 8% | / | -2%
O=C(NC1CCCC1)C1CC(=O)N(c2ccc(F)c(Cl)c2)C1 (stereo not drawn) | -0.8% | -2% | / | 10%
Nc1n[nH]c2c1C1(CCCC1)Cc1ccccc1-2 | 0.5% | 1% | -12 | 1%
COc1ccc(OCCC(=O)NC2=NCCS2)cc1 | -1.1% | -16% | 0 | -14%
Oc1ccc(/C=N/Nc2ccc(C(F)(F)F)cn2)cc1 | 0.6% | -52% | -12 | -17%
O=C1C(Cc2ccccc2)Nc2ncnc(N3CCc4ccccc4C3)c2N1Cc1ccccc1 (stereo not drawn) | ? | / | / | -15%
CN1CCN(c2nc(N3CCN(CCO)CC3)nc3ccccc23)CC1 | ? | -9% | 3 | 24%
COc1ccc(-n2c(Cn3c(=O)sc4ccccc43)nnc2SCC(=O)N2CCOCC2)cc1 | ? | -4% | 2 | 9%
CCCc1noc2c1/C(=N\O)CCC2 | -1.2% | -9% | 5 | 11%
Cc1ccc(S(=O)(=O)N2CCC(C(=O)NNC(=O)C3CC3)CC2)cc1Cl | -2.8% | 0% | 4 | 7%
CC1CCN(c2c([N+](=O)[O-])c(=O)n(-c3ccccc3)c3ccccc23)CC1 | ? | -2% | -2 | 4%
COc1cccc(CN2CCNC(=O)C2CC(=O)NCc2cc(C(C)C)no2)c1 (stereo not drawn) | -1.5% | 0% | 0 | -4%
COCCNC(=S)NNC(=O)c1cc(-c2cccnc2)nc2ccccc12 | -4.6% | 2% | / | 14%
CCOC(=O)C1CCN(C(=S)Nc2cc(OC)c(OC)cc2C(=O)OC)CC1 | 4.3% | -2% | -5 | -10%
Cc1cc(-n2nc(C)cc2C)n2nc(C)c(-c3ccccc3)c2n1 | 0.1% | -1% | 7 | 15%
COc1ccc(NC(=O)C(c2cc3c(cc2[N+](=O)[O-])OCO3)N(C)Cc2ccccc2)cc1 (stereo not drawn) | -1.6% | -11% | -25 | -6%
CSc1ccc(/C=C/c2ccc3cccc(O)c3n2)cc1 | -0.1% | 1% | -3 | -5%
O=C(OCC(=O)N(Cc1ccccc1)Cc1ccccc1)c1ccccc1O | -0.7% | / | / | ?
CN(c1ccccc1)S(=O)(=O)c1nnc(NC(=O)c2ccco2)s1 | 1.8% | -6%&-53% | / | -4%
CSCC[C@H](NC(=O)Cc1c(C)c2cc3c4c(oc3cc2oc1=O)CCCC4)C(=O)O | -0.3% | -7% | / | 0%
CCn1c(=O)c(C(=O)Nn2c(C)nc3ccccc3c2=O)c(O)c2ccccc21 | -1.3% | -3% | -6 | 13%
CN1CCN(CC#Cc2ccccc2)CC1CCO (stereo not drawn) | -0.9% | -4% | / | 26%
O=C(NCCN1C(=O)S/C(=C\c2ccccc2)C1=O)C1CCN(S(=O)(=O)c2cccs2)CC1 | -2.6% | -1% | -1 | -4%
COC(=O)c1ccc(N=c2sc(C(=O)OC)cc(=O)n2C)cc1 | 1.1% | -3% | -13 | -16%
COc1cccc(N(C(=O)CCl)C(C(=O)NCCc2ccccc2)c2cccs2)c1 (stereo not drawn) | -0.6% | ? | -3 | 4%
C=CCc1cccc(/C=N/NC(=O)C(=O)Nc2ccc(C)cc2)c1O | 6.8% | -21% | 9 | 3%
CCOc1ccc2c(ccc(/C=C/c3cc(C)c4cccnc4c3O)[n+]2C)c1 | ? | / | / | -31%
Cn1nccc1C(=O)Oc1cccc(/C=N/NC(=O)c2ccccc2O)c1 | -0.2% | -32% | -15 | 15%
O=S(=O)(NCCOc1cccc2cccnc12)c1ccc(F)cc1 | -0.6% | -1% | -5 | -6%
CCCc1c(C)nc2c(Br)cccc2c1Cl | -4.1% | -9% | 3 | 16%
COc1ccc(-c2cn3c(C)c(C(=O)Nc4ccncc4)sc3n2)cc1 | ? | -16% | -3 | -23%
Cc1ccc(NC(=O)NCC2CCN(Cc3cccc(Cl)c3)CC2)c(Cl)c1 | -0.8% | 6% | -7 | -3%
CC(CCc1ccccc1)NC(=O)C(C)OC(=O)c1ccco1 (stereo not drawn) | -9.7% | / | / | 29%
COc1ccc(C=C2C=C(C(C)(C)C)C(=O)C(C(C)(C)C)=C2)cc1OC | 4.7% | 6% | / | 3%
CN(CC(=O)NNC(=O)CNC(=O)c1cccs1)S(=O)(=O)c1ccc(Cl)cc1 | -0.6% | / | / | 5%
COC(=O)c1ccc(CN2CCCCC2)cc1 | -0.5% | 1% | -6 | -6%
Cc1ccc2[nH]c(=O)c(CN(CC3CCCO3)S(=O)(=O)c3c(C)ccc4nsnc34)cc2c1 (stereo not drawn) | -0.6% | -1% | 5 | 8%
COc1ccc(NC(=O)c2cc(-c3cccc(OC)c3)on2)cc1 | -0.6% | -16% | 7 | 24%
COc1cc(C2CC(=O)c3cnc(N4CCN(Cc5ccccc5)CC4)nc3C2)cc(OC)c1OC (stereo not drawn) | -0.1% | 17% | -5 | 3%
COc1ccc(NC(C)=O)cc1CP(=O)(c1ccccc1)c1ccccc1 | -2.0% | 1% | / | 1%
CC(=O)c1ccc(OCC(O)COc2ccc(C(C)=O)cc2)cc1 | 0.9% | -7% | -1 | -1%
CCOC(=O)N1CCC(NC(=O)C2=CCN(S(=O)(=O)c3ccccc3)CC2)CC1 | 0.2% | 3% | -1 | 14%
O=c1c(F)cn(C2CCCO2)c(=O)n1Cc1ccc(Cl)cc1 (stereo not drawn) | 2.9% | 0% | 8 | 13%
COC(=O)c1c(NC(=O)C2CCCCC2C(=O)O)sc2c1CCCCC2 (stereo not drawn) | 0.9% | -36% | -2 | 0%
O=C(O)c1ccc(Nc2nc(-c3ccc([N+](=O)[O-])cc3)nc3ccccc23)cc1 | 3.7% | 0% | / | 62%

A draw from above in order of molar mass, lowest first:
SMILES | Rango-impB inh | miR-21 FLuc | GLA inh pH 4.5 | Rango dissoc inh
O=c1c(F)cn(C2CCCO2)c(=O)n1Cc1ccc(Cl)cc1 (stereo not drawn) | 2.9% | 0% | 8 | 13%
COC(=O)c1c(NC(=O)C2CCCCC2C(=O)O)sc2c1CCCCC2 (stereo not drawn) | 0.9% | -36% | -2 | 0%
COc1cc(C2CC(=O)c3cnc(N4CCN(Cc5ccccc5)CC4)nc3C2)cc(OC)c1OC (stereo not drawn) | -0.1% | 17% | -5 | 3%

An excerpt of these results, as tab-separated lines:
compound	Rango-impB inh	miR-21 FLuc	GLA inh pH 4.5	Rango dissoc inh
COc1ccc(NC(C)=O)cc1CP(=O)(c1ccccc1)c1ccccc1	-2.0%	1%	/	1%
CC(=O)c1ccc(OCC(O)COc2ccc(C(C)=O)cc2)cc1	0.9%	-7%	-1	-1%
CCOC(=O)N1CCC(NC(=O)C2=CCN(S(=O)(=O)c3ccccc3)CC2)CC1	0.2%	3%	-1	14%

Remaining list, next part:
SMILES | Rango-impB inh | miR-21 FLuc | GLA inh pH 4.5 | Rango dissoc inh
COc1cn(-c2ccccc2)nc1C(=O)Nc1ccc(C)cc1 | -5.0% | -59% | / | 5%
Cc1cccc(C)c1NC(=O)CSc1nnc(-c2ccncc2)n1Cc1ccco1 | 0.3% | 3% | -3 | -7%
CC1CCCC(NC(=O)CNC(=S)N(Cc2ccccc2)Cc2cccs2)C1C (stereo not drawn) | -0.5% | ? | -8 | 0%
CC(C)N=C(NC#N)SCC(=O)NC(C)(C)C | -1.7% | 0% | -9 | -1%
CCOC(=O)C1CCCN(Cc2cn(C)nc2-c2ccc3c(c2)OCCO3)C1 (stereo not drawn) | 0.1% | -7% | -4 | -16%
CCOc1ccc(NC(=S)C(C#N)=C2N(C)c3ccccc3N2C)cc1 | -2.7% | 0% | -14 | -1%
O=C1C=C(NCCN2CCOCC2)CC(c2ccccc2)C1 (stereo not drawn) | -1.7% | -6% | 5 | 13%
O=C(COC(=O)CCc1ccc(S(=O)(=O)N2CCOCC2)cc1)NCc1ccc(Cl)cc1 | 3.8% | -1% | -6 | -10%
CCSc1nnc(NC(=O)Cc2ccc(OC)cc2)s1 | 0.3% | -18% | 5 | 2%
COc1cccc(C(=O)N2CCN(Cc3ccccc3C(F)(F)F)CC2)c1 | -0.5% | 7% | -1 | -1%
CCOc1cc(C(N)=O)cc(Br)c1OCc1ccccc1 | -4.5% | -2% | -2 | -3%
Cc1cc(NC(=O)c2ccc(Cl)cc2)cc(C)c1OCC(=O)N1CCOCC1 | 4.0% | -20% | / | -11%
CN(CC(=O)Nc1cccc(F)c1)C(=O)Cc1n[nH]c(=O)c2ccccc12 | -4.8% | / | / | 9%
O=S(=O)(c1ccc(Br)s1)N1CCN(CCOc2ccccc2)CC1 | -3.3% | / | / | 9%
CCOC(=O)C1=C(CNCc2ccc(C)cc2)NC(=O)NC1c1ccc(OC)cc1 (stereo not drawn) | 0.2% | 26% | -5 | 10%
Cc1oc(/N=C/c2ccc(F)cc2)c(C#N)c1C | 0.3% | 4% | / | -21%
CCCCSc1nnc(CCC)n1N | 9.1% | -3% | 2 | 11%
CC(C)[C@H](CO)Nc1nc(NCc2ccc(S(N)(=O)=O)cc2)c2ncn(C(C)C)c2n1 | ? | ? | 1 | -6%
Cc1cccn2c(=O)nc(SCC(=O)NCCc3ccccc3)nc12 | 1.9% | / | / | 4%
CC1C(=O)CCC1(C(=O)O)c1ccccc1 (stereo not drawn) | -0.2% | -3% | 2 | 0%
CCn1c(SCC(=O)NC2CCCC2)nnc1C(C)NC(=O)c1ccccc1F (stereo not drawn) | 0.9% | 0% | / | -9%
CCOC(=O)c1c(C)[nH]c(C(=O)CN2C(=O)NC(C)(c3ccc(C)cc3)C2=O)c1C (stereo not drawn) | -1.8% | -3% | -6 | -4%
COc1cccc(N=C2CC(C)(C)CC(=O)/C2=C(/O)c2ccccc2)c1 | -2.1% | 0% | -9 | 0%
